# Screening results as filed in PubChem.
# V. cholerae QS: Vibrio cholerae quorum sensing activators, luminescence (AID 686977); V. cholerae quorum sensing reporter, luminescence, 6 h; higher luminescence means a stronger effect; most inactives read 0; 9,400 tested, under 10 active; luminescence at 50 µM unless noted, or EC50 in µM where a hit was titrated;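 active = light above mean plus 3 SD and confirmed in a dose series; inconclusive = above that limit without a clear retest; inactive = below it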;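 note: raw light counts without normalisation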
# * marks the source's active call; other numbers are inactive results; ? = inconclusive; [ ] = remark or other dose. Not all compounds are listed; count on the stated rates, not on these rows.
molecule | V. cholerae QS
CCN1C(=O)c2cccc3c(S(=O)(=O)NCc4cccnc4)ccc1c23 | 0
NC(=O)NC1CCCc2c1[nH]c1ccc(Cl)cc21 (stereo not drawn) | 40
CCCc1nc(SC2CCCC2)c2c(=O)n(C)c(=O)n(C)c2n1 | 40
O=c1c(-c2ccnn2-c2ccc(F)cc2)cnc2n1CCS2 | ?
COc1ccc(CNC(=O)C2CCCN(S(=O)(=O)c3c(C)nn(C)c3C)C2)cc1 (stereo not drawn) | 0
c1cncc(-c2nc3ccccn3c2Nc2ccc3c(c2)OCCO3)c1 | 0
Cc1cc(C)nc(/N=C(/NC(=O)c2ccccc2)Nc2ccccc2)n1 | 0
CCOC(=O)CC1C(C(=O)OCC)ON2OC(C(=O)OC)C(C(=O)OCC)C12 (stereo not drawn) | 40
COc1cccc2c(=O)n(CC(=O)N3CCC(C)CC3)ccc12 | 40
CCc1nc(N)nc(N)c1-c1ccc(Cl)cc1 | 0[10 µg/mL]

# Of the compounds above, six contain four or more nitrogen atoms.
molecule | V. cholerae QS
CCCc1nc(SC2CCCC2)c2c(=O)n(C)c(=O)n(C)c2n1 | 40
O=c1c(-c2ccnn2-c2ccc(F)cc2)cnc2n1CCS2 | ?
COc1ccc(CNC(=O)C2CCCN(S(=O)(=O)c3c(C)nn(C)c3C)C2)cc1 (stereo not drawn) | 0
c1cncc(-c2nc3ccccn3c2Nc2ccc3c(c2)OCCO3)c1 | 0
Cc1cc(C)nc(/N=C(/NC(=O)c2ccccc2)Nc2ccccc2)n1 | 0
CCc1nc(N)nc(N)c1-c1ccc(Cl)cc1 | 0[10 µg/mL]

# (further entries)
molecule | V. cholerae QS
COc1ccccc1Nc1ncc(-c2cccs2)s1 | 0
CCCC(=O)Nc1nc2ccc(OCC)cc2s1 | 0
CCC(Sc1nc2c(c(=O)n1CC)SC(C)C2)C(=O)OC (stereo not drawn) | 0
CC/C(=N\NC(=O)c1ccc2c(c1)OCO2)C12CC3CC(CC(C3)C1)C2 | 0
COc1ccc(C(=O)OC(C(=O)c2ccc(C)cc2)c2ccccc2)cc1 (stereo not drawn) | 0
CC(C)CCNC(=O)Cn1c(=O)oc2cc(S(=O)(=O)N3CC(C)CC(C)C3)ccc21 (stereo not drawn) | ?
CCOc1ccc(NC(=O)CCC(=O)O)cc1 | 0
CCCCNC(=O)NS(=O)(=O)c1ccc(C)cc1 | 360[10 µg/mL]
CC1CCC2(CC1)NC(=O)c1ccccc1O2 (stereo not drawn) | 0
CCOc1ccc(C2CC(c3cccc(C)c3)n3ncnc3N2)cc1 (stereo not drawn) | 40
CCOC(=O)c1ccc(CNC(=O)CCC(=O)O)cc1 | 0
O=C1Nc2ccccc2C(O)(C(=O)NC2CC2)N1c1ccc(Cl)c(Cl)c1 (stereo not drawn) | 0
CCn1cc(SCC(=O)NCc2ccc3c(c2)OCO3)c2ccccc21 | 0
Cc1[nH]c(=O)c(C#N)cc1-c1ccncc1 | 0[10 µg/mL]
C[C@@H]1[C@H](O)[C@@H](C)/C=C/C=C/C=C/C=C/C=C/C=C/C=C/[C@H](O[C@@H]2O[C@H](C)[C@@H](O)[C@H](N)[C@@H]2O)C[C@@H]2O[C@](O)(C[C@@H](O)C[C@@H](O)[C@H](O)CC[C@@H](O)C[C@@H](O)CC(=O)O[C@H]1C)C[C@H](O)[C@H]2C(=O)O | ?
CCOc1cc(CC(=O)N[C@@H](CC(C)C)c2ccccc2N2CCCCC2)ccc1C(=O)O | 40[10 µg/mL]
Cc1ccc(-c2ccc(SCC(=O)Nc3nonc3C)nn2)cc1 | 40
CCOC(=O)C1CCCN(c2c(N3CCC(N4CCCCC4)CC3)c(=O)c2=O)C1 (stereo not drawn) | 0
CN(CCCCCCCCCCN(C)C(=O)Oc1cccc([N+](C)(C)C)c1)C(=O)Oc1cccc([N+](C)(C)C)c1 | 40[10 µg/mL]
COC1CCCCC1Nc1cccc(SC)c1 (stereo not drawn) | 280
CC(C(=O)NC1CCCCCC1)N(c1ccccc1)S(C)(=O)=O (stereo not drawn) | 0
CCOC(=O)C1CCCN(C(=O)c2sc3nc(C)nc(N4CCOCC4)c3c2C)C1 (stereo not drawn) | 0
O=C1NC(=O)N(c2ccccc2)C(=O)/C1=C/c1ccc(Sc2ccccc2)o1 | 280
CC(C)(C)NC(=O)C(c1ccncc1)N(Cc1cccs1)C(=O)Cn1nnc(-c2cccs2)n1 (stereo not drawn) | 0
O=S(=O)(c1ccc(Br)s1)N1CCCCC1 | 0
CN[C@@H]1[C@H](O[C@H]2[C@H](O[C@@H]3[C@@H](O)[C@H](O)[C@@H](N=C(N)N)[C@H](O)[C@H]3N=C(N)N)O[C@@H](C)[C@]2(O)CO)O[C@@H](CO)[C@H](O)[C@H]1O | 40[10 µg/mL]
C=C(C)CSc1nc2ncc(Cl)cc2[nH]1 | 0
CCCOC(=O)C1C2C=CC3(CN(c4cccc(Cl)c4)C(=O)C13)O2 (stereo not drawn) | 0
Cn1c(=O)[nH]c(=O)c2c1nc(CN1CCOCC1)n2CCCc1ccccc1 | 0
COc1ccc(Cn2nnnc2C(c2ccccn2)N2CCN(c3cc(Cl)ccc3C)CC2)cc1 (stereo not drawn) | 0
Cc1ccc(S(=O)(=O)n2ccc(-c3ccc(OCc4c(F)cccc4Cl)cc3)n2)cc1 | 0
Cc1cc(=O)oc(C)c1C(=O)NCCCN1C(C)CCCC1C (stereo not drawn) | 40
COC(=O)[C@@H]1[C@H]2C[C@H]3c4[nH]c5ccccc5c4CCN3C[C@@H]2CC[C@@H]1O | 0[10 µg/mL]
COc1ccc(/C=C2\N=C3CCCCCN3C2=O)cc1OC | 0
OCCN1CCN(CC/C=C2/c3ccccc3Sc3ccc(C(F)(F)F)cc32)CC1 | 200[10 µg/mL]
O=c1[nH]c2ccccc2n1C1CCN(CCCC(c2ccc(F)cc2)c2ccc(F)cc2)CC1 | 0[10 µg/mL]
O=C(c1ccco1)N1CCC(n2nnc3ccccc32)CC1 | 40
CC1=C(C(=O)OCC(C)C)C(c2cc3c(cc2Br)OCO3)NC(=O)N1C (stereo not drawn) | 40
CCN1CCN(CC(=O)Nc2ccc3c(c2)OCO3)C(=O)C1=O | 0
Cc1ccc(C2CC(c3cccc(C)c3)n3ncnc3N2)cc1 (stereo not drawn) | 0
CC(C)c1ccc(NC(=O)C(c2ccccc2)N2CCOCC2)cc1 (stereo not drawn) | 0
O=C1[C@H]2[C@@H](C(=O)N1c1cc(Cl)cc(Cl)c1)[C@]1(C(=O)Nc3ccccc31)N1CCC[C@@H]21 | 0
O=C(C1CCN(c2nnc(-n3cccc3)s2)CC1)N1CCN(c2cccc(C(F)(F)F)c2)CC1 | 0
CS(=O)(=O)N1CCN(c2ccccc2NC(=O)Cc2ccc(Cl)cc2)CC1 | 0
O=C(CCCc1c[nH]c2ccccc12)N1CCCCCC1 | 40
CCc1nc(SCC(=O)Nc2cccc(C(F)(F)F)c2)c2c(=O)n(C)c(=O)n(C)c2n1 | 0
COc1ccc(C2CC(c3ccc(Cl)c(Cl)c3)Nc3nc(N)nn32)cc1 (stereo not drawn) | 40
CCOc1ccccc1NC(=O)CSc1nc2c(c(=O)n1C)SC(C)C2 (stereo not drawn) | 0
CCOc1cccc(-c2nc(C(N)=O)c3[nH]c(=O)n(-c4cccc(Cl)c4)c3n2)c1O | 0
Cc1ccccc1NC(=O)c1cnc2ccccn2c1=O | 200

# Later entries:
molecule | V. cholerae QS
CCCc1nc(SCC(=O)Nc2cc(Cl)ccc2OC)c2c(=O)n(C)c(=O)n(C)c2n1 | 40
COC(=O)CSc1nnc(-c2ccc(S(=O)(=O)N3CCCC3)cc2)n1C | 0
CC(C(=O)NCc1ccco1)n1nc(-c2ccccc2)c2cc(Cl)ccc21 (stereo not drawn) | 0
O=C(CSc1nc2ccccc2[nH]1)c1ccc(Cl)s1 | 0
Cc1nc(CCNC(=O)Cc2ccc(Cl)cc2)cs1 | 0
CN1C(=O)C2(C(C#N)=C(N)N(c3cc(Cl)cc(Cl)c3)C3=C2C(=O)CCC3)c2ccccc21 (stereo not drawn) | 40
CCOC(=O)c1c(C)sc2c1N(C(=O)CCl)c1cc(Cl)ccc1S2 | 0
CCOC(=O)c1c(NC(C)=O)sc2c(OC)c(Br)ccc12 | 0
CCC(c1nnnn1CCc1ccccc1)N(Cc1ccco1)Cc1cc2c(C)ccc(C)c2[nH]c1=O (stereo not drawn) | 40
O=S(=O)(c1ccc2ccccc2c1)N1CCCCC1 | 40
Cc1ccc(C2=[N+]([O-])C3(CCCCC3=O)N(O)C2(C)C)cc1 (stereo not drawn) | 0
CCc1ccc(OCC(=O)Nc2ccc(S(=O)(=O)N3CCCC3)cc2)c(Br)c1 | 240
Cc1ccc2[nH]c(C)c(CC(=O)O)c2c1 | 0
Cc1ccc(C)c(-n2c(SCC(N)=O)nnc2-c2ccccn2)c1 | 0
COc1ccc(C)cc1NC(=O)C1CCCN1S(=O)(=O)c1ccc2c(c1)CCC(=O)N2 (stereo not drawn) | 0
Cn1c(=O)c2c(nc(-n3ccnc3)n2Cc2ccc(Cl)cc2Cl)n(C)c1=O | 0
CCC(Sc1nncn1C)C(=O)Nc1nnc(-c2ccc(Cl)cc2)s1 (stereo not drawn) | 0
Cc1ccc(C)c(NC(=O)CN(C)S(=O)(=O)c2ccc(F)cc2)c1 | 40
CC(C)c1ccc(CN2CC(C(=O)O)CC2=O)cc1 (stereo not drawn) | ?
Oc1ccc(N=Cc2ccc(O)c(O)c2)cc1 | ?
COc1ccc(NC(=O)CC2C(=O)N(c3ccc(Cl)cc3)C(=S)N2CCc2ccncc2)cc1 (stereo not drawn) | 40
CN(C(=O)c1cccc(C#N)c1)c1nnc(-c2ccncc2)s1 | 0
CCC(=O)Nc1c2c(nn1-c1ccc(OC)cc1)CS(=O)C2 (stereo not drawn) | 40
O=C(Nc1ccc(F)cc1F)N1CCN(C/C=C/c2ccccc2)CC1 | 0
Cc1ccc(-n2nnnc2SCC(=O)c2cc(C)n(-c3cc(C)on3)c2C)c(C)c1 | 0
COc1ccc(-c2nnn(CC(=O)Nc3sc4c(c3C#N)CCCC4)n2)cc1 | 40
C=CCN(CC=C)c1cnn(-c2nc3ccccc3[nH]2)c(=O)c1Cl | 40
Cn1ccnc1SCC(=O)Nc1ccc2ccccc2c1 | 0
Cc1nn(C)c(C)c1NC(=O)CN1CCC(O)(c2ccc3c(c2)OCO3)CC1 | 40
Cc1ccccc1Nc1ncnc2c1cnn2-c1ccccc1 | 40
Cc1sc2nc(NCCO)[nH]c(=O)c2c1C | ?
Cc1ccc(-n2c(Cc3cccn3C)nnc2SCC(=O)N2CCN(c3ccccc3)CC2)cc1 | 0
COc1ccc(OCC(=O)Nc2ccc3c(c2)nc(CN2CCCC2)n3C)cc1 | 0
O=C(Cn1cnc2c(cnn2-c2ccccc2)c1=O)OCc1ccccc1 | 0
CCOc1ccccc1NC(=O)c1ccoc1C | 0
Cc1nc(NCC2CCCO2)c2oc3ccccc3c2n1 (stereo not drawn) | 0
COc1ccc(N(CC(=O)N/N=C/c2ccco2)S(=O)(=O)c2ccccc2)cc1 | 0
COCCN1C(=O)c2oc3ccccc3c(=O)c2C1c1cccc(O)c1 (stereo not drawn) | 40
COC(=O)Cc1n[nH]c(=O)c2ccccc12 | 0
Cc1cc(N2CCOCC2)cc(C)[n+]1[O-] | 40
COc1ccc(C(=O)N2CCN(c3ccc(C)c(C)c3)CC2)cc1OC | ?
O=C1/C(=C/c2ccccc2)CCCc2ccccc21 | 0
O=C(NCC(O)CO)c1c(I)c(C(=O)NCC(O)CO)c(I)c(N(CCO)C(=O)CO)c1I (stereo not drawn) | 0[10 µg/mL]
CC12CCC(C(=O)n3c1nc1ccccc13)C2(C)C (stereo not drawn) | 0
COc1ccc(-n2c(Cc3cccn3C)nnc2SCC(=O)Nc2ccc(C(C)=O)cc2)cc1 | 40
Cc1ccc(OC(=O)CCC(=O)OCCCC(F)(F)C(F)(F)F)cc1 | 0
CCN(CC)CCn1c2ccc(Cl)cc2c2nc(C)sc21 | 40
CC1(C)CC(=O)c2c(-c3cccs3)n[nH]c2C1 | 40
CCSc1nnc(NC(=O)C(C)C)s1 | 40
CCSc1cc(N2CC(C)OC(C)C2)nc(-c2ccccc2Cl)n1 (stereo not drawn) | 40

# Ordered by formula weight (rising): three of the compounds above.
molecule | V. cholerae QS
CCC(Sc1nc2c(c(=O)n1CC)SC(C)C2)C(=O)OC (stereo not drawn) | 0
Cn1c(=O)[nH]c(=O)c2c1nc(CN1CCOCC1)n2CCCc1ccccc1 | 0
CCC(c1nnnn1CCc1ccccc1)N(Cc1ccco1)Cc1cc2c(C)ccc(C)c2[nH]c1=O (stereo not drawn) | 40

# More results.
molecule | V. cholerae QS
COc1ccc2c(c1)c(CC(=O)OCC(=O)O)c(C)n2C(=O)c1ccc(Cl)cc1 | 0[10 µg/mL]
c1ccc2c(c1)ccc1nnc(SCc3ccc4c(c3)OCO4)n12 | 160
Cc1ccc(C)c(OCCCC(C)(C)C(=O)O)c1 | 0[10 µg/mL]
Clc1cnccn1 | 0[10 µg/mL]
COc1ccc(Nc2oc(-c3ccccc3Cl)nc2C#N)cc1 | 0
CCN(CC)CCNC(=O)c1cc(S(C)(=O)=O)ccc1OC | 0[10 µg/mL]
COc1ccc(C(=O)Nc2nc3ccc4nc(C)sc4c3s2)cc1 | 40
CC[C@@]1(O)C(=O)OCc2c1cc1n(c2=O)Cc2cc3ccccc3nc2-1 | 280[10 µg/mL]
Nc1ccc2ncccc2c1 | 280
CCN1C(=O)C2(C(C#N)=C(N)Oc3c2c(C)nn3-c2ccccc2)c2ccccc21 (stereo not drawn) | 40
O=C(Nc1ccccc1C(=O)N1CCOCC1)C1CCC(=O)N1C1CCCC1 (stereo not drawn) | 40
Cc1ccc(C2C3=C(CCCC3=O)Nc3nc(SCC(=O)NCc4ccco4)[nH]c(=O)c32)cc1 (stereo not drawn) | 0
Cc1cccc(NC(=S)NN2CCOCC2)c1C | 0
COC(=O)C1=C(C)NC(=O)NC1c1cc(Cl)ccc1OC (stereo not drawn) | 0
Cn1c(NC(=O)c2cccs2)cc(=O)n(C)c1=O | 0
CCNC(=S)N/N=C/c1cc(Br)cc(Br)c1OC | 0
